FPR – FPR binders displacing fluorescent formyl peptide, primary screen, U937-FPR cells, fMLFK-FITC, flow cytometry (AID 362); U937-FPR cells, fMLFK-FITC displacement, flow cytometry; active compounds read high; test concentration not given here; most inactive calls were filed without a number and no value below 0 was filed; inhibition, %; 1% of 4,300 active;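 active = inhibition of labelled peptide binding to the formyl peptide receptor of at least 65%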;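 note: plate controls were buffer control wells for no effect and unlabeled fMLFF blocking peptide for full effect; higher means less cell fluorescence so more probe displaced; part of the set was picked by virtual screening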
The depositor's hits bear a star. Not all compounds are listed (hit frequency here may not be typical).

For COC(=O)C1C(=O)C2=C(CC1C)NC(C)=C(C(=O)OC1CCCCC1)C2c1ccc(C)o1 (stereo not given) the results were FPR 11.5.
`CCC(C)NC(=O)c1cn(CC(C)C)c(=O)c2c1c1ccccc1n2C` (stereo not given) gave FPR inactive.
For CCOC(=O)c1c(-c2ccc(C)cc2)csc1NC(=O)C1CCCCC1C(=O)O (stereo not given) the results were FPR 15.5.
For CCOC(=O)C1=C(C)NC2=C(C(=O)C(C(=O)OC)C(C)C2)C1c1cc(OCC)c(O)c([N+](=O)[O-])c1 (stereo not given) the results were FPR 22.2.
`COc1ccc(Cl)c2c1N[C@@H](c1ccncc1)[C@H]1CC=C[C@@H]21` gave FPR 1.1.
Screening COC(=O)C1C(=O)C2=C(CC1C)NC(C)=C(C(=O)OC(C)C)C2c1ccccc1Br (stereo not given) returned FPR inactive.
Screening O=C(NC1(C(F)(F)F)C(=O)Nc2c1c(=O)[nH]c(=O)n2-c1ccccc1F)c1ccncc1 (stereo not given) returned FPR inactive.
For COc1ccc(N2C3=C(C(=O)CC(C)(C)C3)C(c3cccc(F)c3)C3=C2CC(C)(C)CC3=O)c(OC)c1 the results were FPR inactive.
CCCOC(=O)C1=C(C)NC2=C(C(=O)C(C(=O)OC)C(C)C2)C1c1cc(Cl)c(O)c(OC)c1 (stereo not given) was read as FPR inactive.
`CCOc1cc(C2C(C(=O)OC3CCCCC3)=C(C)NC3=C2C(=O)CC(C)(C)C3)cc(Br)c1O` (stereo not given) gave FPR inactive.
CCCOC(=O)C1=C(C)NC2=C(C(=O)C(C(=O)OC)C(C)C2)C1c1ccc(OC)c(OC)c1OC (stereo not given) was read as FPR 4.2.
For O=C(O)C1C2C=CC(C2)C1C(=O)NCc1ccccn1 (stereo not given) the results were FPR 9.0.
O=C(NC1CCCCC1)C1CCC(CNS(=O)(=O)c2ccccc2)CC1 (stereo not given) was read as FPR inactive.
For COC(=O)C1C(=O)C2=C(CC1C)NC(C)=C(C(=O)OCCOC(C)C)C2c1ccc(N(C)C)cc1 (stereo not given) the results were FPR 79.4*.
`O=C(NCC1CCC(C(=O)Nc2ccc3c(c2)OCO3)CC1)c1ccc(=O)[nH]c1` (stereo not given) gave FPR inactive.
Screening COC(=O)C1C(=O)C2=C(CC1C)NC(C)=C(C(=O)OC1CCCC1)C2c1ccccc1F (stereo not given) returned FPR inactive.
COc1ccc(S(=O)(=O)NC(CC(=O)NC2CCCC(C)C2C)C(C)C)cc1 (stereo not given) was read as FPR inactive.
For CCSCCOC(=O)C1=C(C)NC2=C(C(=O)C(C(=O)OC)C(C)C2)C1c1cc2c(cc1[N+](=O)[O-])OCO2 (stereo not given) the results were FPR inactive.
CCOC(=O)c1c(-c2ccccc2)oc2ccc(O)c(CN3CCC(C)CC3)c12 was read as FPR inactive.
CCOC(=O)C1CCC(CN(Cc2ccccc2)S(=O)(=O)c2ccc(C(C)(C)C)cc2)CC1 (stereo not given) was read as FPR inactive.
Screening O=C(Nc1cccc(F)c1)C1CCC(CNS(=O)(=O)c2ccc(Br)s2)CC1 (stereo not given) returned FPR 4.6.
For Cc1ccc(CSc2nnc(-c3ccncc3)n2CC(C)C)cc1 the results were FPR inactive.
N#Cc1c(NC(=O)C2C3C=CC(C3)C2C(=O)O)sc2c1CCCCC2 (stereo not given) was read as FPR 2.9.
CCS(=O)(=O)c1c(S(=O)(=O)CC)c2cc(C(C)(C)C)ccn2c1C(=O)c1ccc(Cl)cc1 was read as FPR 5.2.
For COc1ccc(CNC(=O)CCCCCn2c(SCC(=O)NCC3CCCO3)nc3cc4c(cc3c2=O)OCO4)cc1 (stereo not given) the results were FPR 2.8.
Cc1ccc(S(=O)(=O)NCCC(=O)Oc2ccc3c(=O)c(Oc4ccccc4)c(C(F)(F)F)oc3c2)cc1 was read as FPR inactive.
`O=C(NCC(=O)N(Cc1cccs1)C1(C(=O)NC2CCCC2)CCCCC1)c1ccccc1` gave FPR inactive.
Cc1ccc(O)c(NC2=CC(=O)CC(C)(C)C2)c1 was read as FPR inactive.
For CCCCCCN1C(=O)C(=O)/C(=C(\O)c2ccccc2)C1c1ccccc1OC (stereo not given) the results were FPR 51.6.
Screening CCSCCOC(=O)C1=C(C)NC2=C(C(=O)C(C(=O)OC)C(C)C2)C1c1ccccc1OC (stereo not given) returned FPR 5.3.
For COc1ccc(C2C(C(=O)N3CCCC(C)C3)c3cc(OC)c(OC)cc3C(=O)N2C)cc1 (stereo not given) the results were FPR inactive.
`CN(C(=O)CSc1c2c(nc3ccccc13)CCCC2)C1CCCCC1` gave FPR inactive.
Screening CCCCN(C)CCNC(=O)c1cn(CC(C)C)c(=O)c2c1c1ccccc1n2C returned FPR inactive.
`COc1ccc(C2(CNC(=O)c3ccc(Br)cc3)CCOCC2)cc1` gave FPR inactive.
For CCOC(=O)N1CCN(Cc2nc3c(c(=O)n(C)c(=O)n3C)n2CCC(C)C)CC1 the results were FPR inactive.
COc1cccc(Cn2c(NCC(C)C)nc3c2c(=O)n(C)c(=O)n3C)c1 was read as FPR 8.1.
CCc1cc(=O)oc2c(C)c(O)ccc12 was read as FPR inactive.
COc1ccc(C2/C(=C(/O)c3ccc(Cl)cc3)C(=O)C(=O)N2CC(C)C)c(OC)c1 (stereo not given) was read as FPR 31.1.
`CCS(=O)(=O)c1c(S(=O)(=O)CC)c2cc(C(C)(C)C)ccn2c1C(=O)c1ccc(C)cc1` gave FPR inactive.
Screening COc1cccc(NS(=O)(=O)CC23CCC(CC2=O)C3(C)C)c1 (stereo not given) returned FPR inactive.
`COCCOC(=O)C1=C(C)NC2=C(C(=O)C(C(=O)OC)C(C)C2)C1c1ccc(O)c(OC)c1` (stereo not given) gave FPR 2.0.
For CCCCOC(=O)COc1cc2oc(=O)c3c(c2cc1CC)CCCC3 the results were FPR inactive.
`CC1(C)CC(=O)C2=C(C1)OC(N)=C(C#N)C2C1CCN(C(=O)OCc2ccccc2)CC1` (stereo not given) gave FPR 0.6.
For CCOc1ccc(/C=C2\CC(CC)C/C(=C\c3ccc(OCC)c(OC)c3)C2=O)cc1OC (stereo not given) the results were FPR inactive.
`CC1(C)CC(=O)C2=C(C1)N(c1ncn[nH]1)C(N)=C(C#N)C2c1cccc(Br)c1` (stereo not given) gave FPR 11.5.
`CC(C)(C)c1cc(C(=O)CSc2nc3ccccc3[nH]2)cc(C(C)(C)C)c1O` gave FPR inactive.
`O=C(C1CCC(CNS(=O)(=O)c2ccc(Br)s2)CC1)N1CCC(Cc2ccccc2)CC1` (stereo not given) gave FPR inactive.
COC(=O)C1C(=O)C2=C(CC1C)NC(C)=C(C(=O)OC(C)C)C2c1ccc(OC)cc1 (stereo not given) was read as FPR 7.2.
For COc1cc2c(C(=O)NCCCN3CCOCC3)cn(CC(C)C)c(=O)c2cc1OC the results were FPR inactive.
Screening CCOC(=O)C1C(=O)C=C(c2cccc(OC)c2)CC1c1ccc(F)cc1 (stereo not given) returned FPR 7.4.
`COc1ccc(C2C(C(=O)Nc3ccccn3)c3ccccc3C(=O)N2C2CCCCC2)cc1` (stereo not given) gave FPR 8.7.
`COc1cc(C2C(C(=O)OC3CCCCC3)=C(C)NC3=C2C(=O)CC(C)(C)C3)cc(OC)c1OC` (stereo not given) gave FPR 25.5.
O=C(O)C1CC=CCC1C(=O)N1CCN(C/C=C/c2ccccc2)CC1 (stereo not given) was read as FPR inactive.
CCOC(=O)C1=C(C)NC2=C(C(=O)C(C(=O)OC)C(C)C2)C1c1cccc(Br)c1 (stereo not given) was read as FPR inactive.
For Cc1c(N(C(=O)CNC(=O)c2ccccc2)C2(C(=O)NC3CCCCC3)CCCCC2)c(=O)n(-c2ccccc2)n1C the results were FPR 6.0.
For CN(C1CCS(=O)(=O)C1)S(=O)C12CC3CC(CC(C3)C1)C2 (stereo not given) the results were FPR inactive.
`COc1ccc(OC)c(C2C3=C(CC(C)(C)CC3=O)Nc3nnnn32)c1` (stereo not given) gave FPR inactive.
Screening CC(C)CN(Cc1c(O)ccc2c3c(c(=O)oc12)CCC3)CC(C)C returned FPR 2.0.
For COc1ccc(C2C(C(=O)OC3CCCCC3)=C(C)Nc3ncnn32)cc1OC (stereo not given) the results were FPR 3.6.
N#CC1=C(N)Oc2n[nH]c(-c3ccccc3)c2C1C1CCCCC1 (stereo not given) was read as FPR 7.4.

Three successive entries from above:
`COc1ccc(C2C(C(=O)Nc3ccccn3)c3ccccc3C(=O)N2C2CCCCC2)cc1` (stereo not given) gave FPR 8.7.
`COc1cc(C2C(C(=O)OC3CCCCC3)=C(C)NC3=C2C(=O)CC(C)(C)C3)cc(OC)c1OC` (stereo not given) gave FPR 25.5.
O=C(O)C1CC=CCC1C(=O)N1CCN(C/C=C/c2ccccc2)CC1 (stereo not given) was read as FPR inactive.

The list continues.
Screening O=C(NC1(C(F)(F)F)C(=O)Nc2c1c(=O)[nH]c(=O)n2-c1ccc(F)cc1)c1ccc(Cl)cc1 (stereo not given) returned FPR 21.5.
Screening C=C(C)C1CCC(C)OC1c1ccc2c(c1)OCO2 (stereo not given) returned FPR inactive.
`CCCOC(=O)C1=C(C)NC2=C(C(=O)C(C(=O)OC)C(C)C2)C1c1ccc(OCC)c(OC)c1` (stereo not given) gave FPR 20.8.
CCCOCCOC(=O)C1=C(C)NC2=C(C(=O)C(C(=O)OC)C(C)C2)C1c1ccc(OC)c(O)c1 (stereo not given) was read as FPR 31.5.
Cc1cc(NC(=O)CSc2nc3ccccc3c(=O)n2CC2CCC(C(=O)NCc3ccccc3Cl)CC2)n[nH]1 (stereo not given) was read as FPR inactive.
COc1cc(C2C(C(=O)OCC(C)C)=C(C)NC3=C2C(=O)CC(c2ccccc2)C3)ccc1OCc1ccccc1 (stereo not given) was read as FPR inactive.
For CCn1c(C(O)c2cc(C(C)(C)C)c(O)c(C(C)(C)C)c2)nc2ccccc21 (stereo not given) the results were FPR 9.8.
For COCCOC(=O)C1=C(C)NC2=C(C(=O)C(C(=O)OC)C(C)C2)C1c1cccc(Cl)c1 (stereo not given) the results were FPR 0.7.
Screening CCCOC(=O)C1=C(C)NC2=C(C(=O)C(C(=O)OC)C(C)C2)C1c1cccc(Oc2ccccc2)c1 (stereo not given) returned FPR inactive.
Screening COc1ccc(C2C(C(=O)N3CCC(C)CC3)CCC(=O)N2c2ccc(OC)cc2)cc1 (stereo not given) returned FPR inactive.

7 compounds out of the list, ordered by molecular weight, falling:
COc1cc(C2C(C(=O)OCC(C)C)=C(C)NC3=C2C(=O)CC(c2ccccc2)C3)ccc1OCc1ccccc1 (stereo not given) was read as FPR inactive.
Screening O=C(NC1(C(F)(F)F)C(=O)Nc2c1c(=O)[nH]c(=O)n2-c1ccc(F)cc1)c1ccc(Cl)cc1 (stereo not given) returned FPR 21.5.
`CCCOC(=O)C1=C(C)NC2=C(C(=O)C(C(=O)OC)C(C)C2)C1c1ccc(OCC)c(OC)c1` (stereo not given) gave FPR 20.8.
For COCCOC(=O)C1=C(C)NC2=C(C(=O)C(C(=O)OC)C(C)C2)C1c1cccc(Cl)c1 (stereo not given) the results were FPR 0.7.
Screening COc1ccc(C2C(C(=O)N3CCC(C)CC3)CCC(=O)N2c2ccc(OC)cc2)cc1 (stereo not given) returned FPR inactive.
For CCn1c(C(O)c2cc(C(C)(C)C)c(O)c(C(C)(C)C)c2)nc2ccccc21 (stereo not given) the results were FPR 9.8.
Screening C=C(C)C1CCC(C)OC1c1ccc2c(c1)OCO2 (stereo not given) returned FPR inactive.

(next part)
Screening Cc1c(OC(=O)C2CCCCC2)ccc2c3c(c(=O)oc12)CCC3 returned FPR 9.3.
Screening COC(=O)C1C(=O)C2=C(CC1C)NC(C)=C(C(=O)OC1CCCCCC1)C2c1cccc([N+](=O)[O-])c1 (stereo not given) returned FPR 0.5.
For CCOC(=O)C(C#N)C(c1ccc(OC)cc1)C1CCOC(C)(C)C1 (stereo not given) the results were FPR inactive.
`CCOC(=O)C1=C(N)OC2=C(C(=O)CC(C)(C)C2)C1c1ccc(C)cc1C` (stereo not given) gave FPR inactive.
For CC1CC(=O)N(c2ccc(N3CC4(C)CC3CC(C)(C)C4)c([N+](=O)[O-])c2)C1=O (stereo not given) the results were FPR inactive.
For O=C(O)CSC12CC3CC(C1)CC(C(=O)O)(C3)C2 the results were FPR inactive.
`CCOc1cc(C2NC(=O)NC(C)=C2C(=O)OCC(F)(F)F)ccc1O` (stereo not given) gave FPR inactive.
CC(=O)N1CCc2cc(S(=O)(=O)NC(C(=O)NCCN(C)Cc3ccccc3)C(C)C)ccc21 (stereo not given) was read as FPR inactive.

Compound activity from PubChem.
